# Polio RdRp inh – inhibitors of poliovirus RNA polymerase binding and polymerization | poliovirus polymerase elongation, fluorescence polarization; hits give low values | % elongation, % (compound at 16.7 µg/mL) | 0.66% of 150,000 active | P03300; in the data active = % elongation below about 90%; note: some results filed as inactive read as strong as hits
# Mtb MbtI inh – MbtI salicylate synthase inhibition; inhibition, %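 (about 17 µg/mL by stock and volumes)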; 0.89% of 100,000 active; AID 493033; purified MbtI enzyme, fluorescence intensity read-out;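 active = above 50% in both replicates, above 80% if mildly self-fluorescent; inactive = the rest, strongly fluorescent compounds included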;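 note: 0% = mean of negative and 100% = mean of positive controls; one replicate is shown; some compounds called inactive have numbers as strong as hits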
# Target sequence (P9WFX0 whole entry, looked up): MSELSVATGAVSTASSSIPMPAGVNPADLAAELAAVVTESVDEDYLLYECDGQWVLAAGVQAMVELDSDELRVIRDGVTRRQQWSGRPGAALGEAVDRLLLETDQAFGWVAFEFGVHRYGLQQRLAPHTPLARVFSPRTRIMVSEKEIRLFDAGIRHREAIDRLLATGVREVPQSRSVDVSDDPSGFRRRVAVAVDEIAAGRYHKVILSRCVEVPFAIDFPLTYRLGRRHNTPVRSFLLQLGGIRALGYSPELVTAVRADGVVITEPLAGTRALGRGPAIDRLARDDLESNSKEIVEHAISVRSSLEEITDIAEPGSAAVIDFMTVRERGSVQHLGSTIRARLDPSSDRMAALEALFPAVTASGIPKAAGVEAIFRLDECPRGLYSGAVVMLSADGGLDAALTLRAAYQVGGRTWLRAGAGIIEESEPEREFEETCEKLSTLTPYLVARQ
# Mtb MenB inh – Mtb MenB enzyme inhibition; P9WNP5; MenB enzyme assay, absorbance read-out; some hits fall short of the stated cut; inhibition, %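 (about 12 µg/mL by stock and volumes)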; 0.43% of 100,000 active;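 active = mean of two replicates above 30%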;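 note: 0% = no compound and 100% = wells with inactive enzyme; the first replicate is given; strong numbers were not always called active; inactives centre near -10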
# Polio RdRp inh intensity – further read-out of Polio RdRp inh, marked with its call; % elongation; measured here: total intensity read-out; formula for this scale not given here;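 total fluorescence in place of polarization; lower means less elongation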
# The depositor's hits bear a star; . = not tested or not shown; & = joins results of further samples. An excerpt; count on the stated rates, not on these rows.
cpd	Structure	Mtb MbtI inh	Mtb MenB inh	Polio RdRp inh intensity	Polio RdRp inh
1	Oc1ccc(/C=C/c2cc(O)cc(O)c2)cc1	-250	-1&-23&-23	104&102&102&98	100&100&101&100
2	COc1ccccc1N1CCN(CCCNc2cc(=O)n(C)c(=O)n2C)CC1	-15&-20	-3&9	101&103	100&101
3	c1ccc(CN(CC2=NCCN2)c2ccccc2)cc1	2&-14	-2&9	105&101	98&101
4	CC(COc1ccccc1)NC(C)C(O)c1ccc(O)cc1 (centres undefined)	-11	0	102	101
5	O=C(c1ccc(F)cc1)C1CCN(CCn2c(=O)[nH]c3ccccc3c2=O)CC1	12&-8	-3&-3	99&99	100&100
6	CC(=O)[C@H]1CCC2C3C[C@H](C)C4=CC(=O)CC[C@]4(C)C3[C@@H](O)C[C@@]21C (some centres undefined)	-18	-4	102	101
7	C1CCC(C(CC2CCCCN2)C2CCCCC2)CC1 (centres undefined)	-10&-15	-4&4	101&101	101&99
8	Cc1nc2ccccn2c(=O)c1CCN1CCC(C(=O)c2ccc(F)cc2)CC1	-12&-18	-18&-3	99&102	101&100
9	CC(COc1ccccc1)NC(C)[C@H](O)c1ccc(O)cc1 (some centres undefined)	-18	5	102	100
10	c1ccc(CC2=NCCN2)cc1	-14&-20	0&2	101&102	100&98
11	O=S(=O)(c1cccc2cnccc12)N1CCCNCC1	-11	1	104&102	101&98
12	C[C@@H](N)C1CCC(C(=O)Nc2ccncc2)CC1 (some centres undefined)	-3	-4	102&100	104&100
13	COc1cc2c(cc1OC)C(=O)CC2	102	-15	105	104
14	CC(=O)c1ccc2c(c1)N(CCCN(C)C)c1ccccc1S2	-6	-1	103	99
15	COc1ccc(C(=O)CC(=O)c2ccc(C(C)(C)C)cc2)cc1	-5	-11	102	100
16	C=CC1=C(C(=O)O)N2C(=O)[C@@H](NC(=O)/C(=N\O)c3csc(N)n3)[C@H]2SC1 (stereo in doubt)	-4	0	101	100
17	O=C(CCN1CCC(c2ccccc2)C1)c1ccc2c(c1)OCCO2 (centres undefined)	51	15	98	101
18	CC(=O)O[C@]1(C(C)=O)CCC2C3C=C(Cl)C4=CC(=O)[C@@H]5C[C@@H]5[C@]4(C)C3CC[C@@]21C (some centres undefined)	-3	12	101	99
19	CC(=O)c1ccc(S(=O)(=O)NC(=O)NC2CCCCC2)cc1	-10	-4	100	101
20	CN1CCN(C(c2ccccc2)c2ccccc2)CC1	-3&0	-1&10	101&98	99&100

# Five structures from above, arranged by molar mass, low to high:
cpd	Structure	Mtb MbtI inh	Mtb MenB inh	Polio RdRp inh intensity	Polio RdRp inh
10	c1ccc(CC2=NCCN2)cc1	-14&-20	0&2	101&102	100&98
1	Oc1ccc(/C=C/c2cc(O)cc(O)c2)cc1	-250	-1&-23&-23	104&102&102&98	100&100&101&100
12	C[C@@H](N)C1CCC(C(=O)Nc2ccncc2)CC1 (some centres undefined)	-3	-4	102&100	104&100
20	CN1CCN(C(c2ccccc2)c2ccccc2)CC1	-3&0	-1&10	101&98	99&100
15	COc1ccc(C(=O)CC(=O)c2ccc(C(C)(C)C)cc2)cc1	-5	-11	102	100

# Limited to Mtb MenB inh, Mtb MbtI inh and Polio RdRp inh, for some of the entries so far:
no. | SMILES | Mtb MenB inh | Mtb MbtI inh | Polio RdRp inh
9 | CC(COc1ccccc1)NC(C)[C@H](O)c1ccc(O)cc1 (some centres undefined) | 5 | -18 | 100
8 | Cc1nc2ccccn2c(=O)c1CCN1CCC(C(=O)c2ccc(F)cc2)CC1 | -18&-3 | -12&-18 | 101&100
13 | COc1cc2c(cc1OC)C(=O)CC2 | -15 | 102 | 104
2 | COc1ccccc1N1CCN(CCCNc2cc(=O)n(C)c(=O)n2C)CC1 | -3&9 | -15&-20 | 100&101
14 | CC(=O)c1ccc2c(c1)N(CCCN(C)C)c1ccccc1S2 | -1 | -6 | 99
17 | O=C(CCN1CCC(c2ccccc2)C1)c1ccc2c(c1)OCCO2 (centres undefined) | 15 | 51 | 101

# The listing picks up, starting 2 compounds before the break.
cpd	Structure	Mtb MbtI inh	Mtb MenB inh	Polio RdRp inh intensity	Polio RdRp inh
19	CC(=O)c1ccc(S(=O)(=O)NC(=O)NC2CCCCC2)cc1	-10	-4	100	101
20	CN1CCN(C(c2ccccc2)c2ccccc2)CC1	-3&0	-1&10	101&98	99&100
21	Cc1cc(-c2ccccc2)nnc1NCCN1CCOCC1	-8&-5	-11&2	101&99	102&97
22	CC(=O)Nc1ccc(C(=O)O)cc1	-36	-3	97	94
23	O=C1c2ccc(O)c(O)c2C(=O)c2c(O)ccc(O)c21	-3	-4	102	99
24	COc1ccccc1-c1cccc(C(=O)O)c1	15	13	101	101
25	CCOC(=O)c1ccc(N)cc1	-2&-18	-8&1	98&102	102&100
26	C[C@@H]1CC2C3C[C@H](F)C4=CC(=O)C=C[C@]4(C)[C@@]3(F)[C@@H](O)C[C@]2(C)[C@@]1(O)C(=O)COC(=O)C(C)(C)C (some centres undefined)	-11	-5	101	101
27	O=C1CCCc2cc(S(=O)(=O)N3CCC(C(=O)NC4CCCCCC4)CC3)ccc2N1	-7	-16	102	102
28	CN(C)CCOC(C)(c1ccccc1)c1ccccn1 (centres undefined)	-8&-6	3&-1	103&100	101&98
29	CN1CCOC(c2ccccc2)c2ccccc2C1 (centres undefined)	-3&-2	-5&-7	100&98	102&100
30	CCCNC(C)C(=O)Nc1c(C)csc1C(=O)OC (centres undefined)	-9	-5	100	100
31	O=C(CCNNC(=O)c1ccncc1)NCc1ccccc1	-4	-2	102	103
32	OCCN1CCN(CCCN2c3ccccc3Sc3ccc(Cl)cc32)CC1	-4&-10	12&-1	102&103	101&101
33	CC(C)C(=O)Nc1cccc(C(F)(F)F)c1	-6	-13	102	100
34	Cc1c(NC(=O)c2cccnc2)c(=O)n(-c2ccccc2)n1C	-2&-17	-10&1	100&104	101&99
35	O=C(Nc1cc2cc[nH]c2cn1)c1ccccc1	.	-24	107	107
36	CC(C(=O)O)c1ccc(C(=O)c2cccs2)cc1 (centres undefined)	6&9	-7&-21	103&100	100&101
37	CCN(CC)CCNC(=O)c1cc(Cl)c(N)cc1OC	-7&-11	-4&-1	101&101	101&100
38	CCC(=O)N1CCC(C(=O)O)CC1	.	5	97	97

# Quoted from the listing.
# Polio RdRp inh with no. 31 stands at 103
# Mtb MenB inh with no. 24 stands at 13
# Polio RdRp inh with no. 35 stands at 107
# Mtb MenB inh with no. 21 stands at -11&2
# Polio RdRp inh intensity with no. 38 stands at 97
